Mtb betalactam: beta-lactam sensitization of Mtb H37Rv. M. tuberculosis H37Rv growth with meropenem, percent inhibition; hits of this screen are not shown here. inhibition, % at 25 µM. hit rate 0.27% among 330,000. AID 434955;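 active = about 74% or more and at least 40 points above the plate without the antibiotic, then above 30% in a dose series; inconclusive = first-round hits that could not be retested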;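 also: growth measured after seven days incubation then overnight dye step; 0% = bacteria only wells and 100% = bacteria with antibiotic; twin plates without the antibiotic show which effects depend on it; some results filed as inactive read as strong as hits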
RecA intein inh: inhibitors of M. tuberculosis RecA intein splicing; P9WHJ3; cell-free RecA intein splicing, fluorescence; inhibition, %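 (about 9 µM by stock and volumes)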; hit rate 0.75% among 290,000; AID 2221; in the data active = inhibition above about 30%; inconclusive = no clear call, values can overlap the other calls;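 also: 0% = vehicle wells and 100% = reference inhibitor control wells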
Target sequence (P9WHJ3 whole entry, looked up): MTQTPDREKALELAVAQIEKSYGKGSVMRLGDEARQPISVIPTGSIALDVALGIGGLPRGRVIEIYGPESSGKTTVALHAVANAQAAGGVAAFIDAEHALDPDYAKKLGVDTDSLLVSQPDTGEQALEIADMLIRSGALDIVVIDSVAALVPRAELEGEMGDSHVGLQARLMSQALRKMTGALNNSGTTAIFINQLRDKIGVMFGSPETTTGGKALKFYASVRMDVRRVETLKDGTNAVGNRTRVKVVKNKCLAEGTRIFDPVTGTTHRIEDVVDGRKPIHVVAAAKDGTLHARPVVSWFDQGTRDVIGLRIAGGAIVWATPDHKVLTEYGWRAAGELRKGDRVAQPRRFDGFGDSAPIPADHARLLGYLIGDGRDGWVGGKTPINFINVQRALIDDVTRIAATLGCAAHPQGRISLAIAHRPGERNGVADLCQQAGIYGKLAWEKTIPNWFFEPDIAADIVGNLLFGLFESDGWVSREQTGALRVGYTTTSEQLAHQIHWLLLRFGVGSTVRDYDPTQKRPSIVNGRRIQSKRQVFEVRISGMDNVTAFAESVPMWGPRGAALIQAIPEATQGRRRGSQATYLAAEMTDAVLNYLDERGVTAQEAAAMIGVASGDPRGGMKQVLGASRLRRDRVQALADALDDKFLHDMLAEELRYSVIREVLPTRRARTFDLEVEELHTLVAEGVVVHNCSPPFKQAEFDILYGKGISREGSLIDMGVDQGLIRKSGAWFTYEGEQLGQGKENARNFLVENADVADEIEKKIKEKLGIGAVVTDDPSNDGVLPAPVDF
Arbovirus inh: antivirals against arbovirus infection | arbovirus infection cell-based antiviral screen | inhibition, % at 10 µM | hit rate 0.37% among 200,000 | AID 1251;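 active = inhibition from about 30%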;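 also: bluetongue infection of BSR cells; cell survival read as ATP light after 72 h; 0% = infected wells without compound and 100% = uninfected wells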
Mtb H37Rv: M. tuberculosis H37Rv growth inhibitors, H37Rv strain (AID 1626). M. tuberculosis H37Rv growth inhibition; higher % means a stronger effect. inhibition, % at 10 µM; hits with a dose series show IC50 in µM. hit rate 0.95% among 220,000;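 active = confirmed in a dose series; inconclusive = inhibition above 80% but not taken into the dose series; inactive = below 80% or under 30% at every dose of the series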;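 also: bacteria incubated seven days before Alamar blue readout; 0% = bacteria only wells and 100% = bacteria with antibiotic wells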
YopH inh: inhibitors of Yersinia enterocolitica YopH tyrosine phosphatase; AID 898; inhibition, %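 (about 10 µM by stock and volumes)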; hit rate 0.16% among 140,000; fluorescence Ex485/Em525;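 active = inhibition of 50% or more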;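 also: controls were vehicle for no effect and minimum signal wells for full effect; inactives centre near -20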
Arbovirus inh repeat: recorded beside Arbovirus inh, whose call it bears; inhibition, %; measured here: 10K subset replicate screen; many hits read low in the repeat;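 first of two repeat runs on a subset; 0% = infected and 100% = uninfected wells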
Active calls of the source: *; ? = inconclusive; · = not tested or not shown.

Start of the data: the first 4 entries as a preview:
SMILES	Mtb betalactam	RecA intein inh	Arbovirus inh	Mtb H37Rv	YopH inh	others
COc1cc(C(C(=O)NC2CCCCC2)N(CCN2CCOCC2)C(=O)C2COc3ccccc3O2)cc(OC)c1OC (configuration not stated)	-1	47*	5	-8%	·
O=c1c2ccccc2cnn1Cc1n[nH]c(=S)n1-c1ccc(F)cc1	-4	0.3	3	-8%	·
CCc1cccc(NC(=O)CCC(=O)N2CCSc3ccccc32)c1	?	2.6	·	·	·
O=C(Cn1c(=O)oc2cc(S(=O)(=O)N3CCc4ccccc43)ccc21)N1CCCCC1	7	-1.5	11	22%	-34	Arbovirus inh repeat=2

The listing, previewed entries included:
SMILES	Mtb betalactam	RecA intein inh	Arbovirus inh	Mtb H37Rv	YopH inh	others
COc1cc(C(C(=O)NC2CCCCC2)N(CCN2CCOCC2)C(=O)C2COc3ccccc3O2)cc(OC)c1OC (configuration not stated)	-1	47*	5	-8%	·
O=c1c2ccccc2cnn1Cc1n[nH]c(=S)n1-c1ccc(F)cc1	-4	0.3	3	-8%	·
CCc1cccc(NC(=O)CCC(=O)N2CCSc3ccccc32)c1	?	2.6	·	·	·
O=C(Cn1c(=O)oc2cc(S(=O)(=O)N3CCc4ccccc43)ccc21)N1CCCCC1	7	-1.5	11	22%	-34	Arbovirus inh repeat=2
CCC1S/C(=N/N=C/c2ccco2)NC1=O (configuration not stated)	15	-1.0	10	-3%	-21
COc1ccc(NC(=O)CN(C)C(=O)c2ccc3c(c2)OCCO3)cc1	-7	-2.7	·	·	·
CCCOc1ccc(C(=O)CCC(=O)OCC(=O)N(C)c2c(N)n(Cc3ccccc3)c(=O)[nH]c2=O)cc1	2	1.1	·	·	·
Cc1ccc2cc3c(nc2c1)OCC3	0	0.8	·	44%	·
C=CCc1cc(Cl)ccc1OCCOCCNC(C)(C)C	4	·	-27	-9%	·
CCOc1ccc(NS(=O)(=O)c2cc(C(=O)N3CC(C)OC(C)C3)ccc2C)cc1 (configuration not stated)	2	-7.2	·	·	·
Cc1ccc(-c2cn3c(n2)SCC3)cc1	-8	1.3	0	-2%	·
CCOCCn1c(=O)c2c(nc3n2CCN3c2ccc(C)cc2)n(C)c1=O	-4	-2.1	·	·	·

Entries above that have an NH in an aromatic ring, in the order listed:
SMILES	Mtb betalactam	RecA intein inh	Arbovirus inh	Mtb H37Rv	YopH inh	others
O=c1c2ccccc2cnn1Cc1n[nH]c(=S)n1-c1ccc(F)cc1	-4	0.3	3	-8%	·
CCCOc1ccc(C(=O)CCC(=O)OCC(=O)N(C)c2c(N)n(Cc3ccccc3)c(=O)[nH]c2=O)cc1	2	1.1	·	·	·

Additional compounds
SMILES	Mtb betalactam	RecA intein inh	Arbovirus inh	Mtb H37Rv	YopH inh	others
CC(=O)NCCC(=O)Nc1cc(S(=O)(=O)N2CCCCC2)ccc1Oc1cccc(C)c1	-4	1.8	·	·	·
COC(=O)c1cc(NCc2cccs2)ccc1N1CCOCC1	-5	-6.0	-3	0%	-41
COc1ccc([N+](=O)[O-])cc1NC(=O)CSCc1ccc(Br)cc1	-2	5.7	-10	4%	-19
CC(=O)NCCC1CCCCN1C(=O)c1cc(COc2cc(C)ccc2C)on1 (configuration not stated)	1	0.3	·	·	·
Cc1nc(N)ncc1Sc1ccc(Cl)cc1	53	2.8	8	21%	·
O=S(=O)(Nc1nc2ccccc2[nH]1)c1ccccc1	4	·	-1	-7%	-44
Cc1noc(C)c1CN(C(=S)NC1CC1)c1ccccc1	5	0.6	-3	2%	-33
CCOc1ccc(/C(O)=C2/C(=O)C(=O)N(c3ncccn3)C2c2ccc(Cl)cc2)cc1 (configuration not stated)	67	0.7	·	1%	·
COc1cccc(C(=O)Nc2ccc(N3CCN(C(=O)c4ccco4)CC3)cc2)c1	24	-1.2	·	·	·
CNS(=O)(=O)c1cccc(C(=O)OCC(=O)NCc2ccccc2)c1	11	-4.2	9	3%	2
COc1ccc(N(CC(=O)NCCc2ccc(OC)c(OC)c2)S(=O)(=O)c2ccc(OC)c(OC)c2)cc1	-6	1.2	·	·	·
Cc1ccc(-c2nnc(CN3CCCCC3C)o2)cc1 (configuration not stated)	1	-1.2	·	·	·
Cc1csc(N2CCCC2c2nc3cc(Cl)c(N4CCCCC4)cc3n2CCCO)n1 (configuration not stated)	51	3.1	·	1%	·
C#CC(C)(C)NC(=O)CSc1nc2c(c(=O)n(C)c(=O)n2C)n1CCCC	-7	1.6	3	-6%	-49	Arbovirus inh repeat=2
CCN(CCNC(=O)CS(=O)(=O)Cc1nc(-c2cccc(OC)c2)oc1C)c1ccccc1	-3	5.4	-26	5%	-7
COCCNc1nc(-c2cc(C)n(CCc3ccc(OC)cc3)c2C)cs1	4	18	9	1%	·
CC(C)N(C(=O)NC(=O)NCC1CCCO1)S(C)(=O)=O (configuration not stated)	-4	1.6	1	-10%	-29
COc1ccc(OCCCC(=O)Nc2nnc(C3CCCO3)s2)cc1 (configuration not stated)	0	-0.1	7	-7%	-4
COc1cccc(-n2c(CN3CCN(c4ccc(C)cc4)C(C)C3)nc3ccc([N+](=O)[O-])cc3c2=O)c1 (configuration not stated)	0	0.9	10	12%	-39
CC1=NN(c2cccc([N+](=O)[O-])c2)C(=O)C1	0	84*	0	-6%	·
COc1cccc(CN2CCNC(=O)C2CC(=O)NCCOc2cccnc2)c1OC (configuration not stated)	-10	2.8	6	7%	·
O=C(O)CNS(=O)(=O)c1cccc(Cl)c1	51	-0.5	·	-5%	·
O=C(NCCc1c[nH]c2ccccc12)Nc1cccc2ccccc12	1	-0.4	-13	-9%	4
CC1=C(C(=O)OC2CCCC(C)C2)C(c2ccccc2)NC(=O)N1 (configuration not stated)	11	5.6	·	·	·
C=CCN(N=Nc1cccc([N+](=O)[O-])c1)c1cccc([N+](=O)[O-])c1	5	3.0	-4	2%	-22
CCC(C#N)(CC)P(=S)(c1ccccc1)c1ccccc1	7	19	16	3%	1
O=C(NCCCn1ccnc1)c1nn2c(C(F)(F)F)cc(-c3ccc(Br)cc3)nc2c1Cl	97	-0.8	-5	6.5µM*	-21
CCCc1cc(=O)oc2cc(C)cc(OCC(=O)NCc3ccncc3)c12	0	0.7	·	·	·
COc1ccc2c(c1)OC13CCCCC1C2C(C(=O)c1ccccc1)C(=O)N3 (configuration not stated)	7	1.4	1	4%	-37
Cc1ccc(/C=N/NC(=O)CN2CCN(S(=O)(=O)c3ccc(Br)cc3)CC2)s1	2	0.5	-1	·	-11
Cc1ccc(C2NC(=O)c3c(sc(C)c3C)N2)c(O)c1 (configuration not stated)	12	-6.6	13	-5%	-15
CC1CCc2nn(CC(=O)NCCN3CCOCC3)cc2C1 (configuration not stated)	?	-1.8	2	-11%	-5	Arbovirus inh repeat=2
Cc1c(NC(=O)COc2cccc(Cl)c2Cl)c(=O)n(-c2ccccc2)n1C	-7	0.3	·	·	·
Cc1cc(-c2ccc(C)c(S(=O)(=O)NC(C)Cc3ccco3)c2)on1 (configuration not stated)	8	2.1	·	·	·
COc1ccc(Nc2ccc(S(=O)(=O)N3CCCCC3)cc2[N+](=O)[O-])cc1	6	8.6	11	12%	-26
C=C(C)C(=O)Nc1ccc(OC(F)(F)C(F)F)c(NC(=O)C(=C)C)c1	14	-0.8	6	-9%	-19
Cc1cccc(NC(=O)c2cccnc2)c1	-4	1.3	5	2%	-37	Arbovirus inh repeat=4
COc1ccc2[nH]cc(CCN=C3SCC(=O)N3C)c2c1	10	-0.6	-1	-15%	-6
Cc1ccccc1OCC(=O)NNC(=O)CCN1C(=O)c2ccccc2C1=O	-6	-1.8	10	9%	·
S=c1[nH]nc(-c2cccc(Cl)c2)n1/N=C/c1ccco1	-4	-4.2	·	6%	·
CCOc1ccc(C(=O)Nc2cccc(C(C)=O)c2)cc1[N+](=O)[O-]	-4	-0.8	-2	-5%	·
COc1ccc(C2/C(=C(/O)c3ccccc3)C(=O)C(=O)N2CCO)cc1 (configuration not stated)	-6	0.2	-3	·	-50
O=C(Nc1ccc2c(c1)OCO2)C(=O)c1c[nH]c2ccccc12	4	-0.9	·	·	·
CC(C)(C)NC(=O)N1CCn2cccc2C1c1ccccc1F (configuration not stated)	-3	1.9	19	1%	·
CC1=CC(=C2C(=O)c3ccccc3C2=O)C=C(C)N1C	-1	5.0	-4	·	-21
O=C(O)Cc1ccc(NS(=O)(=O)c2ccccc2Cl)cc1	-3	3.1	9	-6%	·
CCn1c(SCC(=O)Nc2ccc3c(c2)OCO3)nc2ccccc21	12	0.4	-22	1%	-2
CCOC(=O)c1nnn(-c2nc(N(C)C)nc(N(C)C)n2)c1C	3	-1.1	3	-1%	·
N#Cc1ccccc1NC(=O)C1CC(=O)N(c2ccc3c4c(cccc24)CC3)C1 (configuration not stated)	-1	-0.2	-1	6%	-22
Cc1cccc(NC2=C(NC(=O)c3ccccc3)C(=O)c3ccccc3C2=O)c1	8	72*	-21	11%	23
CCC(=O)Nc1cccc(NC(=O)c2ccccc2Cl)c1	-7	-1.6	-10	47%	·
N#CCc1c(C#N)c(N)nc(N2CCN(S(=O)(=O)c3ccccc3F)CC2)c1C#N	-6	-0.9	·	·	·
COCCN(CCOC)S(=O)(=O)c1ccc(C(=O)NC2CCN(Cc3ccccc3)CC2)cc1	-3	-1.4	6	1%	-4
O=[N+]([O-])c1cccc(/C=N\N2CCN(c3ccc(Cl)cc3)CC2)c1	-1	-1.8	0	2%	-1
CNC(=O)CC1C(=O)N(c2ccc(Cl)cc2)C(=S)N1NC(=O)c1cccc(F)c1 (configuration not stated)	10	1.6	·	·	·
O=C1C2CCCN2C(c2ccc(F)c(F)c2)N1c1cccc(Cl)c1 (configuration not stated)	-2	3.2	-2	-4%	-62	Arbovirus inh repeat=-1
CCOC(=O)COn1c(=O)c(-c2cc3ccccc3o2)[n+]([O-])c2ccccc21	48	-15	-1	-1%	2
CCN=C1S/C(=C\c2ccc(OC)c(OCC)c2)C(=O)N1CC	-3	-1.6	0	28%	-27
CC(C)C(NC(=O)OCc1ccccc1)C(=O)NCc1ccc(C(=O)O)cc1 (configuration not stated)	0	-5.0	-1	-5%	-19
CC(C)(C)CC(=O)N1CCN(Cc2ccc3c(c2)OCO3)CC1	1	-3.4	·	·	·

Carrying on.
SMILES	Mtb betalactam	RecA intein inh	Arbovirus inh	Mtb H37Rv	YopH inh	others
CCOc1ccccc1C(=O)N(Cc1ccco1)C1CCS(=O)(=O)C1 (configuration not stated)	-4	·	4	-3%	-44
CC1(C)CC2CC(C)(CN2CC(O)c2ccccc2)C1 (configuration not stated)	-3	-0.3	·	·	·
CN(CCO)c1ccc(/C=N/Nc2nncc3ccccc23)cc1	3	0.2	·	·	·
Cc1ccc(CNC(=O)c2cc(=O)c3ccccc3o2)cc1	2	2.1	·	·	·
CCN(CC)S(=O)(=O)c1ccc(C)c(NCC(=O)Nc2ccc(C#N)c(Cl)c2)c1	5	5.5	24	12%	-15
Fc1ccc(Sc2cc(Cl)c(-c3ccccc3)nn2)cc1	5	12	-11	14%	-25
O=C1[C@@H]2Cc3c([nH]c4ccccc34)C(c3ccc([N+](=O)[O-])cc3)N2C(=O)CN1C1CC1 (some centres not stated)	6	6.1	·	·	·
S=C(NCc1ccncc1)Nc1cc(Cl)cc(Cl)c1	88	-0.7	·	·	·
Cc1ccc(C(=O)COC(=O)CN2C(=O)C3C4CCC(C4)C3C2=O)cc1[N+](=O)[O-] (configuration not stated)	5	6.0	0	19%	-29
Cc1nn(CCCC(=O)N2CCc3ccccc3C2)c(=O)c2cc3sccc3n12	1	5.9	-6	·	-17	Arbovirus inh repeat=-4
Cc1nc(SC2CC(=O)N(c3ccccc3)C2=O)nc2c1CCCC2 (configuration not stated)	-13	2.9	21	-4%	-25
CCOc1ccc(Nc2nc(N)nc(CSC(=S)N3CCN(c4ccccc4)CC3)n2)cc1	8	4.6	·	13%	·
CCOC(=O)CCCCC(=O)c1[nH]c(=O)[nH]c1Cn1cnc2ccccc21	-2	-0.1	9	-2%	2
O=C(Cc1ccccc1)Nc1nc(-c2cccc([N+](=O)[O-])c2)cs1	6	4.0	-1	1%	-28
COc1ccc(Cl)cc1Nc1cc(C)nc2ccccc12	-3	0.1	·	·	·
O=C(O)CC/C(=N\NC(=O)CNC(=O)c1ccc(F)cc1)c1ccccc1	2	0.2	·	-8%	·
CC/C(=N\NC(=O)c1nnn(-c2nonc2N)c1-c1cccc(OC)c1)c1ccc(C)cc1	12	3.3	·	·	·
CCN1CCN(CCCNC(=O)C2CCCN(c3nc4c(C)cc(C)cc4s3)C2)CC1 (configuration not stated)	-1	-5.0	·	·	·
COc1cccc(CN(C)Cc2cc(=O)oc3c(C)c(C)ccc23)c1	5	15	·	·	·
O=C(c1cccc2ccccc12)N1CCC(N2CCN(c3ccccc3)CC2)CC1	9	4.0	8	6%	-14
CCOc1ccc2oc(C(=O)Nc3ccc(N4CCOCC4)cc3)c(C)c2c1	-1	-2.4	-9	5%	0
CNC(=O)N(O)C1N(/N=C/c2ccc(SC)cc2)C(=S)SC1(C)C (configuration not stated)	-3	-15	·	·	·

Some of the compounds tested. The share of hits here may be higher or lower than overall.
